# H5N1 antiviral: MDCK cell protection from H5N1 avian flu | cytopathic effect, luminescence, 72 h; hits give high values; no value below 0 was filed and about half of the inactive calls have no number; reference of the scale not given here | inhibition, % at 50 µM | actives 0.07% (n = 96,000) | AID 740; in the data active = inhibition above about 25%
# * hit, by the source's call; i = inactive.
# The opening 2 records, ahead of the listing:
SMILES,H5N1 antiviral
O=[N+]([O-])c1ccc(N=Nc2ccc(O)cc2O)cc1,1.6
NC(=O)Cn1cc(C(=O)c2cccs2)c2ccccc21,4.8

# Results (from the top)
SMILES,H5N1 antiviral
O=[N+]([O-])c1ccc(N=Nc2ccc(O)cc2O)cc1,1.6
NC(=O)Cn1cc(C(=O)c2cccs2)c2ccccc21,4.8
CCn1cc(C(=O)NCc2cccnc2)c(=O)c2cc(F)c(N3CCN(C(=O)c4ccco4)CC3)cc21,1.6
O=C(CN(Cc1ccccc1)S(=O)(=O)c1ccccc1)N1CCOCC1,2.7
CS(=O)(=O)N(CC(=O)NCc1ccco1)c1cc(C(F)(F)F)ccc1Cl,i
COC(=O)c1sccc1NC(=O)CCC1CCCC1,i
Cc1cc(N2C(=O)C3CC=CCC3C2=O)cc(C)c1Br (configuration not stated),0.3
Cc1ccc(C2(c3ccc(C)cc3)NC(=O)N(Cc3c(C)noc3C)C2=O)cc1,0.8
COc1ccc(-c2n[nH]c(C)c2-c2ccc(Cl)cc2)c(O)c1,i
O=c1nc2ccccc2c2n1CC(CN1CCN(c3ccc(F)cc3)CC1)N2 (configuration not stated),0.2

# Four of the compounds above, as tab-separated lines.
smiles	H5N1 antiviral
O=[N+]([O-])c1ccc(N=Nc2ccc(O)cc2O)cc1	1.6
NC(=O)Cn1cc(C(=O)c2cccs2)c2ccccc21	4.8
CCn1cc(C(=O)NCc2cccnc2)c(=O)c2cc(F)c(N3CCN(C(=O)c4ccco4)CC3)cc21	1.6
O=C(CN(Cc1ccccc1)S(=O)(=O)c1ccccc1)N1CCOCC1	2.7

# (listing goes on)
SMILES,H5N1 antiviral
CC(C)COc1nc2ccccc2c(=O)n1OCC(=O)O,1.1
CCOC(=O)/C=C1\CC(=O)Nc2cc(C)c(C)cc2N1,i
Cc1ccc(C2=NNC(C(O)C(O)C(O)C(C)O)S2)cc1 (configuration not stated),i
CCCc1[nH]nc2c1C(c1c(C)nn(-c3ccccc3)c1Cl)C(C#N)=C(N)O2 (configuration not stated),i
COc1ccc(/C=N/c2nc3ccccc3n2CCN2CCCCC2)cc1OC,i
Cc1nnc(-c2ccccc2)c(=O)n1/N=C/c1c(O)ccc2ccccc12,i
Cn1c(=O)oc2cc(S(=O)(=O)N3CCC(C(=O)NCc4ccc(F)cc4)CC3)ccc21,0.4
O=C(OCc1c(Cl)cccc1Cl)c1cccnc1Cl,i
COc1ccc(C(=O)NCC(c2cccnc2)N2CCN(c3ccccc3)CC2)cc1OC (configuration not stated),i
CC(=O)Nc1ccc([N+](=O)[O-])cn1,i
Cn1ccnc1C(O)c1cc(C(C)(C)C)c(O)c(C(C)(C)C)c1 (configuration not stated),i
C=CCn1c(COc2ccccc2)nnc1SCC(=O)O,i
C/C(=N\NC(=O)CSCc1ccc(Cl)cc1)c1ccc2c(c1)OCCO2,0.1
COCCCNC(=O)/C=C/c1ccc(Cl)cc1,i
CCOC(=O)CSc1ncnc2c1sc1nc(N3CCOCC3)c3c(c12)CCCC3,2.5
CCOCCCNC(=O)Cc1ccc(OC)c(OC)c1,i
COC(=O)c1ccc(COc2ccc(-c3nn[nH]n3)cc2)cc1,0.5
CC1(C)Cc2ccccc2-c2nnc(-c3ccc(O)cc3)n21,1.4
CCSc1nnc(CCNC(=O)OC(C)(C)C)o1,0.8
Cc1cc(-c2n[nH]c(=S)o2)c(C)n1-c1ccccc1,i
CC1=C(C(N)=O)C(c2ccc(C)o2)C(C(N)=O)=C(C)N1,i
Cc1c(Cl)cccc1NC(=O)CSCC(N)=O,i
COc1cc2c(cc1NC(=O)CSc1nnc(Cc3cccs3)n1Cc1ccco1)oc1ccccc12,i
CC(=O)N1CCN(C(=O)CCc2nc3sc4c(c3c(=O)[nH]2)CCCC4)CC1,1.7
O=C1N(CC(=O)N2CCc3ccccc32)CCN1Cc1ccc(Cl)cc1,i
Cc1nn(Cc2ccc(C(=O)N3c4ccc(F)cc4CCC3C)o2)c(C)c1Br (configuration not stated),i
COc1ccc(N(C)C(=O)c2ccc3snnc3c2)cc1,1.0
Cn1c(=O)c2c(nc(SCCNS(=O)(=O)c3ccccc3)n2C)n(C)c1=O,3.1
Cc1cc(N2C(=O)c3ccc(C(=O)NCc4ccccc4)cc3C2=O)no1,i
CCCCN(CCCC)S(=O)(=O)c1ccc(NC(=O)CN2CCOCC2)cc1,i
O=C(NC1CCCCCCC1)c1ccc2c(c1)OCO2,i
Cc1ccc(S(=O)(=O)NC2OC(=O)C(Cl)=C2Cl)cc1 (configuration not stated),i
Cc1cc(NC(=O)CSc2ncn(-c3ccccc3)n2)no1,i
CSc1nc2n(n1)C(c1ccccn1)C1=C(CC(C)(C)CC1=O)N2 (configuration not stated),1.2
Cc1ccc(CN2CC34C=CC(O3)C(C(=O)NCc3ccc5c(c3)OCO5)C4C2=O)cc1 (configuration not stated),0.8
Cc1nn(CCC#N)c2nc(-c3ccccc3)cc(C(F)(F)F)c12,0.0
CCOC(=O)C1=C(C)NC2=C(C(=O)CC(C)(C)C2)C1c1ccc(N(C)C)cc1 (configuration not stated),0.6
CCOCCCNC(=O)c1ccc(N(C)S(=O)(=O)c2ccc(OC)cc2)cc1,0.3
O=C(NCc1ccc2c(c1)OCO2)c1cc(-c2ccc(Cl)cc2Cl)on1,i
Cc1cc2ccccc2cc(C)c1=O,0.6
O=c1[nH]c2c(s1)C(c1ccc(O)cc1)C1C3CCC(C3)C1S2 (configuration not stated),1.2
Cc1ccc(-c2cc(C(=O)NCc3ccco3)c3ccccc3n2)o1,0.1
Cc1ccc(-c2c(C#N)c(N)n(-c3ccc(C)cc3)c(=O)c2C#N)cc1,i
CCOn1c(-n2nc(C)cc2C)nc2ccccc2c1=O,i
COc1cccc(NS(=O)(=O)c2ccc3[nH]cc(C(=O)NC4CC4)c(=O)c3c2)c1,1.1
CCOC(=O)Cc1csc(N)n1,0.4
O=C1CC(c2ccco2)CC2=C1C(c1ccccc1)n1nc(C(F)(F)F)nc1N2 (configuration not stated),i
Cc1cc(C)nc(NN2C(=O)/C(=C/c3ccc(O)cc3)SC2=S)n1,1.3
COc1ccc(C(CNC(=O)c2ccc(S(=O)(=O)N3CCOCC3)cc2)N2CCCCC2)cc1 (configuration not stated),1.1
CCOC(=O)N1CCN(Cc2nc(N)nc(Nc3ccccc3C)n2)CC1,0.7

# Some of the entries so far, tab-delimited:
canonical_smiles	H5N1 antiviral
CC1(C)Cc2ccccc2-c2nnc(-c3ccc(O)cc3)n21	1.4
CCSc1nnc(CCNC(=O)OC(C)(C)C)o1	0.8
Cc1cc(-c2n[nH]c(=S)o2)c(C)n1-c1ccccc1	i
CC1=C(C(N)=O)C(c2ccc(C)o2)C(C(N)=O)=C(C)N1	i

# Next part:
SMILES,H5N1 antiviral
COC(=O)C(Cc1ccccc1)NC(=O)CSc1nc(C)cc(=O)[nH]1 (configuration not stated),i
O=C(c1ccc(N2C(=O)CCC2=O)cc1)N1CCOCC1,0.8
COc1cc(NS(=O)(=O)c2ccc(OC)c(C)c2C)c(OC)cc1Cl,12
COc1cc(OC)c(OC)cc1CNC(C)C(O)c1ccccc1 (configuration not stated),0.1
CN(Cc1ccco1)C(=O)Cn1c(=O)oc2cc(S(=O)(=O)NCc3ccccc3)ccc21,2.9
O=C(Nc1ccc(Cl)cc1)OCCn1nnnc1C(c1ccccc1)N1CCOCC1 (configuration not stated),i
Nc1nc(CN2CCN(c3ccccc3F)CC2)nc(Nc2ccccc2)n1,0.7
[N-]=[N+]=CC(=O)C(Cc1ccccc1)N1C(=O)c2ccccc2C1=O (configuration not stated),i
CCOc1cccc(-n2nnnc2-c2ccc(OC)cc2)c1,2.1
COc1cc(NC(=O)C2CCCN(S(=O)(=O)c3ccc4c(c3)oc(=O)n4C)C2)cc(OC)c1 (configuration not stated),1.7
COC(=O)c1ccc(OCC(=O)c2ccccc2OC)cc1,0.9
CCn1c(C)cc(/C=C2\NC(=O)N(Cc3ccccc3)C2=O)c1C,0.5
O=C(C(NS(=O)(=O)c1cccc2nsnc12)c1ccccc1)N1CCN(c2ccccn2)CC1 (configuration not stated),0.2
COc1ccc(C(=O)c2cnc3cc4c(cc3c2C)OCO4)cc1,0.2
CC1(C)CC2CC(C)(CN2S(=O)(=O)c2ccc(N)cc2)C1 (configuration not stated),i
CN1CCc2c(sc(/N=C/c3cccs3)c2C(N)=O)C1,2.4
CC1=C(C(N)=O)C(c2cccs2)n2nc(-c3cccc(C)c3)nc2N1 (configuration not stated),i
O=C(CSc1nnc(CNc2ccccc2)o1)N1CCc2ccccc21,0.2
CC(C)CC(NC(=O)c1ccc(Cl)cc1)C(=O)OCC(=O)c1ccc2c(c1)NC(=O)CO2 (configuration not stated),i
CC(=O)Nc1ccc(S(=O)(=O)NC(CC(=O)NCCCN2CCOCC2)C(C)C)cc1 (configuration not stated),0.9
O=C1NC(c2ccccc2)(C(F)(F)F)SC2=NCCCN12 (configuration not stated),i
N/C(=N\OS(=O)(=O)c1ccc2ccccc2c1)c1ccncc1,0.1
CCc1ccc(-c2nc(CN3CCC(C(=O)N4CCN(c5ccccn5)CC4)CC3)c(C)o2)cc1,i
Cc1csc(NC(=O)C(CC(C)C)NS(=O)(=O)c2ccc3c(c2)oc(=O)n3C)n1 (configuration not stated),1.8
CC(C)NCCOc1cccc(Br)c1,0.6
CC(C)N1CC2(c3ccccc3)CN(C(C)C)CC(c3ccccc3)(C1)C2=O,i
Nc1nc(Br)c2c(F)cccc2c1-c1ccc(Cl)cc1,i
Cc1cc(/C=C(\C#N)C(=O)NCC2CCCO2)c(C)n1-c1ccc(Cl)cc1 (configuration not stated),0.5
CC(C)CNC(=O)c1ccc(COc2ccc(Cl)cc2Cl)o1,0.2
C/C(N)=C(/C#N)C(=O)COC(=O)COc1ccc(Cl)cc1C,i
CC(O)(CS(=O)(=O)c1cccc(C(F)(F)F)c1)C(=O)Nc1cccc(C(F)(F)F)c1 (configuration not stated),i
O=C(NC(NC1CCS(=O)(=O)C1)C(Cl)(Cl)Cl)c1cccc(Cl)c1 (configuration not stated),0.8
O=C(CCn1c(=S)[nH]c2cc3c(cc2c1=O)OCO3)N1CCc2ccccc2C1,0.2
COC(=O)Cc1c[nH]c2cccc(OCC(O)CN(Cc3ccc([N+](=O)[O-])cc3)C(C)(C)C)c12 (configuration not stated),2.4
CCOC(=O)N1CCC(C(N)=O)CC1,i
Cc1cc(NC(=O)COC(=O)C2COc3ccccc3O2)no1 (configuration not stated),i
CCOc1ccc(-c2cc(CCCC(=O)Nc3cc(OC)ccc3OC)no2)cc1,1.6
COc1ccc(Cc2nnc(NC(=O)c3cccs3)s2)cc1,0.3
CCOC(=O)CSc1ccc(S(=O)(=O)N(C)C2CCCCC2)cc1[N+](=O)[O-],0.5
O=C(O)C1CCCCC1C(=O)Nc1nc(-c2cccs2)cs1 (configuration not stated),i
Cc1ccc(CC2S/C(=N/c3ccccn3)NC2=O)cc1 (configuration not stated),0.7
O=C(Cn1cnc2ccccc2c1=O)NCc1ccco1,1.7
N#Cc1cc(C(=O)c2cc(Br)ccc2O)cn(C2CCCCC2)c1=O,i
COc1ccccc1-c1cc(C(=O)N/N=C/c2cccs2)c2ccccc2n1,0.2
CCCCn1c2nc3ccccc3nc2c2c(=O)n(C(C)CC)cnc21 (configuration not stated),2.1
CCn1cc(SCC(=O)N2CCc3ccccc32)c2ccccc21,1.7
COc1ccc(NC(=O)N2CCCC2C(=O)Nc2ccccc2)cc1 (configuration not stated),0.1
COc1ccc(SCc2noc(C(=O)NCC3CCCO3)c2C(=O)O)cc1 (configuration not stated),i
O=S(=O)(Cc1ccccc1)N1CCN(c2ccccc2)CC1,1.0
COc1ccc(/C=N/NC(=O)CCCOc2ccc(Cl)cc2Cl)cc1[N+](=O)[O-],i

# Pulled one by one from the entries so far, two records:
SMILES,H5N1 antiviral
O=S(=O)(Cc1ccccc1)N1CCN(c2ccccc2)CC1,1.0
CCCCn1c2nc3ccccc3nc2c2c(=O)n(C(C)CC)cnc21 (configuration not stated),2.1

# Further records:
SMILES,H5N1 antiviral
COc1cc2c(cc1NC(=O)CN1CCN(S(=O)(=O)c3ccc(F)cc3)CC1)oc1ccccc12,0.3
Cn1c(=O)c2c(nc(SCC(=O)OCc3ccccc3)n2C)n(C)c1=O,i
O=S(Cc1ccccc1)CC(O)(c1ccc(Cl)cc1)c1ccc(Cl)cc1 (configuration not stated),i
Clc1cccc(Cl)c1COc1ccccn1,0.3
Cc1ccccc1NC(=S)NC(=O)c1cc(-c2ccccc2)nc2ccccc12,i
CC(=O)c1ccc(NS(=O)(=O)c2ccccc2)cc1,1.5
Cc1ccc(NC(=O)c2ccccc2)s1,i
CCN1CCCC1CNC(=O)C1CCCN(S(=O)(=O)c2cccc3nsnc23)C1 (configuration not stated),0.5
O=c1cc(Cl)c(-c2ccccc2)n[nH]1,3.4
CCOCCCNC(=O)CN1C(=O)CSc2cc(S(=O)(=O)N3CCCCCC3)ccc21,1.7
CCCn1nnnc1SCC(=O)Nc1nnc(CC)s1,i
CC(=NCc1ccco1)c1c(C)[nH]n(-c2nc3ccccc3s2)c1=O,i
O=C(O)CSc1nnc(SCc2cccc3ccccc23)s1,i
CCOc1ccccc1NC(=O)CCSc1nc2n[nH]c(C)c2c(=N)n1-c1ccccc1Cl,i
CCc1cccc(NC(=O)COc2ccccc2)c1,i
COc1cccc(C(=O)CSc2nnnn2C2CCCCC2)c1,i
C/C(=N/OCC(=O)Nc1ccccc1)c1cccs1,i
CSc1nc(C)c2cc(C)oc2n1,2.0
CCOC(=O)CC(NC(=O)c1cccs1)c1ccc(OCC)cc1 (configuration not stated),2.4
O=C(Cn1cnnn1)Nc1ccccc1Cc1ccccc1,i
COc1cc(-c2cccs2)cc(=O)c2c(C)oc(C)c12,i

# High-throughput results: PubChem BioAssay, SRMLSC

# This is a subset; the hit share may differ from the screen's.
